Screens from PubChem BioAssay.
HPGD inh: qHTS Assay for Inhibitors of HPGD (15-Hydroxyprostaglandin Dehydrogenase); 15-hydroxyprostaglandin dehydrogenase [NAD(+)] (Homo sapiens), P15428; purified HPGD, NADH fluorescence kinetic, PGE2 substrate; 4.3% of 150,000 active; Potency, µM, without a hit: at the highest dose activity change, negative = inhibition, usual class: inhibitors; active = well fitted inhibition curve with a large enough effect (not every such curve was filed as active); inconclusive = small, poorly fitted or top-dose-only effect, or another doubt; inactive = no such curve, though single readings can be large or run the other way;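 further: top concentration of the series not given in the record; plate controls included wells without enzyme; inactives centre near -10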
Target sequence (P15428 whole entry, looked up): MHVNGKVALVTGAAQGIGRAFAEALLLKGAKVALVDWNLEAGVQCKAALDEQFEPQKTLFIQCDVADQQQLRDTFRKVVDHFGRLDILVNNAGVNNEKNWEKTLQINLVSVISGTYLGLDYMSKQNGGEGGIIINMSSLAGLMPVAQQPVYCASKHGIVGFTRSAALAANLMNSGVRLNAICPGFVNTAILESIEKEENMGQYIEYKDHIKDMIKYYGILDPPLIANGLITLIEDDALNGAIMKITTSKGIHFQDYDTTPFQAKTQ
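NADH formation kinetics: reaction with 30 uM PGE2 and 1 mM NAD+ (final), 20 nM enzyme, Tris-HCl pH 8 with Tween 20, after 15 min compound preincubation at room temperature. Fluorescence change, last versus first of five reads.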
* marks the source's active call; other numbers are inactive results; ? = inconclusive. On the % scale 0 is the no-effect control and ±100 the full control effect; potency means the concentration at half of the fitted maximal effect. The list is partial; rates above refer to the full screens.

HPGD inh,Structure
-7.7%,CCCCCCOc1ccc(C(CC(=O)O)C(N)=O)cc1 (stereo unspecified)
4.7%,CC(O)(C#CCN1CCOCC1)c1ccccc1 (stereo unspecified)
?,COc1cccc(C(=O)N2CCN(c3ncccn3)CC2)c1
-8.7%,CC(=O)c1ccc(O)c(CN(C2CCCCC2)C2CCCCC2)c1O
-4.1%,O=c1[nH]cnc2c1nc(Cl)n2C1OC(CO)C(O)C1O (stereo unspecified)
-3.8%,Cc1ccc(S(=O)(=O)N[C@@H](C)C(=O)N2CCC(C(=O)N3CCC[C@H]3C(=O)O)CC2)cc1
-23.8%,CC(/C=N/NC(=O)c1cc(-c2ccc(Cl)cc2)nc2ccccc12)=C\c1ccco1
-28.8%,O=C1CN(Cc2ccccc2)C(=NCc2ccco2)S1
?,O=C(Nc1ccccc1)N(CCCN1CCOCC1)Cc1cc2cc3c(cc2[nH]c1=O)OCCO3
-12.8%,CC1=C(/C=C/C(C)=C/C=C/C(C)=C/C=C/C=C(C)/C=C/C=C(C)/C=C/C2=C(C)C(=O)CCC2(C)C)C(C)(C)CCC1=O
-7.8%,CC(=O)N1[C@H](C)C=C[C@]1(Cc1ccccc1)C(=O)NCc1ccccn1
-10.4%,COc1ccc(COn2c(=O)c(C)[n+]([O-])c3ccccc32)cc1OC
?,COc1cccc(CNc2ccc3c(c2)ncn3C(C)C)c1OC
-25.3%,Cc1ccc(S(=O)(=O)NCC2CCC(C(=O)NCCCOC(C)C)CC2)cc1 (stereo unspecified)
20µM*,O=C(NC1CC1)c1ccc(F)cc1Cl
-7.2%,Cc1ccc(NC(=O)C(Cc2ccccc2)NC(=O)c2ccco2)cc1 (stereo unspecified)
-5.4%,COc1cccc(NS(=O)(=O)c2ccc(NC(C)=O)cc2)c1
-7.5%,Cc1nc2cc(Cl)ccc2n1-c1ccccc1
?,Cc1nn(-c2ccccc2)c2[nH]c(C(F)(F)F)cc(=O)c12
-11.0%,COC(=O)c1cc(OC)c(OC)cc1NC(=S)N1CCN(Cc2ccccc2)CC1
-8.0%,Nc1nc(SCc2ccccc2Cl)nc2nc3c(cc12)CCCC3
-2.5%,O=C(O)c1oc2ccccc2c1-n1cccc1
-11.6%,Cc1ccc(S(=O)(=O)/N=S(\C)CC2CC2(Cl)Cl)cc1 (stereo unspecified)
-8.9%,CCOC(=O)C1=C(C)C(c2ccc(OC)cc2)NC(=S)N1 (stereo unspecified)
-5.1%,O=C(NOC(=O)c1cc(Br)ccc1Cl)c1cccs1
-9.1%,Cc1ccc(NC(=O)c2ccc([N+](=O)[O-])cc2Cl)nc1
-9.3%,COc1ccccc1OCCOc1ccc(/C=N/n2cnnc2)cc1
-16.3%,CC1CCc2c(nc3sc4c(c3c2N)CCCC4)C1 (stereo unspecified)
-4.1%,COc1cccc(Cn2c(Oc3cccc(C)c3)nc3c2c(=O)n(C)c(=O)n3C)c1
7.08µM*,Cc1c(C(=O)N2CCc3ccccc3C2)sc2nc(-c3ccccc3)cn12
?,COc1ccc(C2Nc3ccccc3C(=O)N2c2ccccc2)cc1COc1ccccn1 (stereo unspecified)
-19.6%,O=C(COc1ccccc1Cl)Nc1cnn(Cc2ccccc2)c1
-3.1%,C[C@@]12CCC(=O)C=C1CC[C@H]1[C@H]3CC[C@](O)(C(=O)CO)[C@]3(C)CC(=O)[C@@H]12
-1.2%,O=C(Nc1cc(Cl)ccc1Cl)c1ccc(OC(=O)c2ccco2)cc1
-10.9%,COc1ccc(CCN(C(=O)C(F)(F)F)C(C(=O)NC2CCCCC2)c2cccs2)cc1 (stereo unspecified)
-2.6%,Oc1ccccc1CN1CCCN(Cc2ccccc2O)C1
-7.3%,FC(F)(F)c1nnc2ccc(N3CCCCCC3)nn12
-5.3%,CCOC(=O)C1CCCN(c2c(N3CCN(c4ccccn4)CC3)c(=O)c2=O)C1 (stereo unspecified)
-1.5%,Cc1ccc(C)c2c1cc(C)c1nnc(SCC(=O)N3CCCc4ccccc43)n12
-22.9%,CCOc1ccccc1N1CCN(C(=O)c2cccc(-c3ccc(O)cc3)c2)CC1
0.398µM*,Cc1ccc(S(=O)(=O)N(C)c2ccc(C(=O)N3CCCCC3)cc2)cc1
0.2%,COc1cc(C(Nc2ccccn2)c2c(NC(=O)c3ccco3)sc(C)c2C)cc(OC)c1OC (stereo unspecified)
-2.0%,CC(NC(=O)Nc1ccccc1)C(c1cccs1)N1CCOCC1 (stereo unspecified)
-10.8%,Cn1c(=O)[nH]c(=O)c2c1nc(CN1CCOCC1)n2Cc1ccccc1
-11.8%,CC1CN(C(=O)CSc2nc(-c3ccc(F)cc3)cs2)CC(C)O1 (stereo unspecified)
-13.3%,Cc1ccc(S(=O)(=O)NCC(=O)N2CCOCC2)cc1
12.6µM*,CC1CCCN(C(=O)CSc2nc3ccccc3o2)C1 (stereo unspecified)
-23.2%,O=C(NCc1ccco1)c1ccc2c(=O)n(Cc3ccco3)c(SCC(=O)N3CCCC3)nc2c1

Quoted from the listing.
CCCCCCOc1ccc(C(CC(=O)O)C(N)=O)cc1 (stereo unspecified) – HPGD inh: -7.7%
O=C(COc1ccccc1Cl)Nc1cnn(Cc2ccccc2)c1 – HPGD inh: -19.6%
C[C@@]12CCC(=O)C=C1CC[C@H]1[C@H]3CC[C@](O)(C(=O)CO)[C@]3(C)CC(=O)[C@@H]12 – HPGD inh: -3.1%
CC1CN(C(=O)CSc2nc(-c3ccc(F)cc3)cs2)CC(C)O1 (stereo unspecified) – HPGD inh: -11.8%

Continued:
HPGD inh,Structure
-8.7%,CCCn1nnnc1NCc1ccccc1OCc1cccs1
?,COc1ccc(OC)c(C2=NOC(C(=O)NCC3CCCO3)C2)c1 (stereo unspecified)
-6.7%,COc1ccc(CC(=S)N2CCOCC2)cc1F
-4.2%,COCCCNC(=O)Nc1ccc(F)cc1F
-4.6%,CCn1cc(C(=O)NCCC2=CCCCC2)c(=O)c2cc(S(=O)(=O)N(C)C)ccc21
-1.5%,COc1cc(CNCC(C)C)c(Br)cc1OCC(=O)NCc1ccccc1
-29.9%,COC(=O)c1cc(Cl)c(NC(=O)c2cc3ccccc3o2)cc1OC
-11.4%,COc1ccc(-n2cccc2C=O)cc1
-0.5%,Cc1ccc2c(Cl)cc(Cl)c(OCC(=O)Nc3cc(C)on3)c2n1
-3.6%,N[C@@H](CSCc1ccc(I)cc1)C(=O)O
?,CCn1c(=S)sc2c(=O)[nH]c(C)nc21
-15.7%,Fc1cccc(Cl)c1CSc1nnnn1-c1ccc2c(c1)OCO2
-3.0%,S=C(NC1CCCC1)NC1CC1
?,Cc1cnc(C(=O)OCC(=O)c2csc(N3CCCCC3)n2)cn1
-17.6%,CCn1c(Cc2ccccc2)nnc1SCC(=O)Nc1ccc2c(c1)OCO2
-17.4%,CNc1nc(N2CCc3ccccc32)ncc1F
-5.3%,O=C(Nc1ccc(S(=O)(=O)Nc2nccs2)cc1)C1CCCCC1
3.0%,CCCN(C(=O)Cn1ncc2c(=O)oc3ccccc3c21)c1cccc(C)c1
-3.2%,Cc1ccc(-c2noc(CCC(=O)Nc3cc(C)ccn3)n2)cc1
-12.3%,CCOC(=O)Nc1nc(C)c(C(=O)c2ccc(Cl)cc2)s1
-7.2%,COc1ccc(C)cc1NC(=O)C(OC(=O)c1cc(C)oc1C)c1ccccc1 (stereo unspecified)
-7.1%,Cn1c(=O)c2c(nc(SCCOc3ccc4ccc(=O)oc4c3)n2C)n(C)c1=O
-2.6%,CC(C)(C)C(=O)NC1(C(F)(F)F)N=C2SCCN2C1=O (stereo unspecified)
-13.4%,CC1CCCCC12NC(=O)N(CC(=O)NC(=O)Nc1ccc3c(c1)OCCO3)C2=O (stereo unspecified)

The final 7 records of the part before open the next one.
HPGD inh,Structure
3.0%,CCCN(C(=O)Cn1ncc2c(=O)oc3ccccc3c21)c1cccc(C)c1
-3.2%,Cc1ccc(-c2noc(CCC(=O)Nc3cc(C)ccn3)n2)cc1
-12.3%,CCOC(=O)Nc1nc(C)c(C(=O)c2ccc(Cl)cc2)s1
-7.2%,COc1ccc(C)cc1NC(=O)C(OC(=O)c1cc(C)oc1C)c1ccccc1 (stereo unspecified)
-7.1%,Cn1c(=O)c2c(nc(SCCOc3ccc4ccc(=O)oc4c3)n2C)n(C)c1=O
-2.6%,CC(C)(C)C(=O)NC1(C(F)(F)F)N=C2SCCN2C1=O (stereo unspecified)
-13.4%,CC1CCCCC12NC(=O)N(CC(=O)NC(=O)Nc1ccc3c(c1)OCCO3)C2=O (stereo unspecified)
-3.1%,Cn1c(CN2CCOCC2)nnc1SCC(=O)Nc1nccs1
-7.0%,COc1ccc(CNC2CC(=O)N(C)C2=O)cc1 (stereo unspecified)
-12.3%,O=C1NC(=Nc2ccc(Cl)cc2)/C(=C/c2ccco2)S1
4.7%,CCOC(=O)C1CCN(C(=O)CN2C(=O)C(CC)Oc3ccccc32)CC1 (stereo unspecified)
-11.1%,C=CCSc1nnc2nc3[nH]c4c(C)cccc4c3nn12
-4.3%,N#Cc1ccc(C(=O)Nc2ccc(N3CCN(C(=O)c4ccco4)CC3)cc2)c(F)c1
6.4%,C[N+]1(C)CCC[C@H]1C(=O)[O-]
-23.7%,CCCCn1c(SCC(=O)NCc2ccco2)nnc1-c1ccco1
-6.1%,Cc1ccc(NC(=O)CN(c2ccccc2F)S(C)(=O)=O)cc1
-6.2%,COc1ccc(N2CCN(C(=O)c3ccncc3)CC2)cc1
-5.7%,O=C(CCN1C(=O)c2ccccc2C1=O)Nc1ccccn1
-6.3%,CSCCC(NC=C1C(=O)OC(C)(C)OC1=O)C(=O)O (stereo unspecified)
?,COc1cccc(Nc2nnc(SCC(=O)N3CC(C)OC(C)C3)s2)c1 (stereo unspecified)
0.7%,OC1CCN(C(=S)NCCc2ccccc2)CC1
-16.6%,COc1cc2cnc(Cl)nc2cc1OC
-24.3%,COc1ccc(N2C(=O)/C(=C\c3ccco3)N=C2SCC(=O)N(C(C)C)C(C)C)cc1Cl
-9.0%,c1ccc2nc(N3CCOCC3)c(N3CCOCC3)nc2c1
-25.5%,Nc1nnc(CSCc2ccc(Cl)cc2)s1
-9.5%,O=C(N/N=C/c1ccc([N+](=O)[O-])s1)c1cccc(Br)c1
-8.0%,Fc1ccc(CN2CCCCCC2)c(F)c1
-15.3%,N#CC1=C(SCc2ccc(C#N)cc2)N=C(N)C(c2nc(-c3ccccc3)cs2)C12CCCCC2 (stereo unspecified)
?,COC(=O)c1cc(Cc2ccc(N)c(C(=O)OC)c2)ccc1N
-12.2%,COc1ccc(S(=O)(=O)N2CCCC2C(=O)Nc2ccc(C(C)=O)cc2)cc1 (stereo unspecified)
-19.4%,O=C(OCc1cc(=O)n2c(n1)sc1ccccc12)c1ccc2c(=O)n3c(nc2c1)CCC3
0.1%,CCCCCC(=O)NC(Nc1ccc(S(N)(=O)=O)cc1)C(Cl)(Cl)Cl (stereo unspecified)
3.98µM*,CCN(CC)S(=O)(=O)c1ccc(C(=O)N2CCCCC2)cc1
-12.7%,Cn1c(C(=O)N2CCC(C(=O)N3CCN(Cc4ccc5c(c4)OCO5)CC3)CC2)cc2sccc21
-14.3%,O=C1CC(SC2=NCCS2)C(=O)N1c1ccc(Cl)cc1 (stereo unspecified)
-7.4%,O=C(COc1cccc2ccccc12)NNC(=O)c1cccs1
-3.1%,CCOC(=O)C(NC(=O)CC)(Nc1ccc(S(=O)(=O)Nc2cc(C)on2)cc1)C(F)(F)F (stereo unspecified)
?,Cc1ccc(C(=O)N/N=C\c2cc3c(cc2Br)OCO3)s1
-2.7%,CCOC(=O)CSc1nnc2n(C3CCCCC3)c(=O)c3c4c(sc3n12)CCCC4
?,O=c1[nH]c2ccc(Cl)cc2c(-c2ccccc2)c1SC(=S)N1CCCCC1
-7.3%,c1ccc(-c2ccccc2OCCCN2CCCCC2)cc1
?,CS(=O)(=O)N1CCC2(CCCN(c3ccccn3)C2)CC1
-14.1%,NC(=O)c1ccc(Sc2nnc(-c3cccs3)n2CC2CCCO2)c([N+](=O)[O-])c1 (stereo unspecified)
-17.2%,Cc1ccc(C(C(=O)NC2CCCC2)N(C(=O)Cc2cccs2)c2ccc(C)c(C)c2)o1 (stereo unspecified)
-2.1%,COCc1cc(=O)n2[nH]c(C)nc2n1
-4.3%,O=C(Nc1ccncc1)c1c(F)cccc1F
-10.4%,CCCCn1c(CN2CCN(C)CC2)nc2ccccc21

Structures listed so far that bear a hit mark in HPGD inh:
HPGD inh,Structure
20µM*,O=C(NC1CC1)c1ccc(F)cc1Cl
7.08µM*,Cc1c(C(=O)N2CCc3ccccc3C2)sc2nc(-c3ccccc3)cn12
0.398µM*,Cc1ccc(S(=O)(=O)N(C)c2ccc(C(=O)N3CCCCC3)cc2)cc1
12.6µM*,CC1CCCN(C(=O)CSc2nc3ccccc3o2)C1 (stereo unspecified)
3.98µM*,CCN(CC)S(=O)(=O)c1ccc(C(=O)N2CCCCC2)cc1

Continuation.
HPGD inh,Structure
-11.9%,O=C(COc1cccc2ccccc12)Nc1nc2ccccc2[nH]1
4.47µM*,O=C(O)C(S)[C@@H](S)C(=O)O (stereo partly specified)
-5.6%,CCc1ccc(C(=O)COC(=O)C(CCSC)NC(=O)c2ccccc2)cc1 (stereo unspecified)
?,COC(=O)c1ccc(NS(=O)(=O)c2cc(C)ccc2OC)cc1
-12.2%,CCCCc1ccc(-c2nc(-c3ccncc3)no2)cc1
-8.2%,Cc1c(Cl)cnc(NC(=O)COC(=O)c2ccc3ncsc3c2)c1Cl
-0.2%,CN1c2cc3c(cc2N=C(c2ccc(C(=O)O)cc2)c2ccccc21)C(C)(C)CCC3(C)C
0.631µM*,O=[N+]([O-])c1ccc(Cl)c(/C=N/n2c(C3CCCCC3)n[nH]c2=S)c1
-8.6%,COc1cccc(N(CC(=O)NCCSc2ccc(Cl)cc2)S(C)(=O)=O)c1
?,CS(=O)(=O)Nc1ccccc1C(=O)O
-10.9%,CCN(CC)C(=O)Oc1ccc2ccccc2c1Cl
-3.3%,CC1=C(C)CC(C(=O)NCC(=O)c2ccccc2)C(C(=O)O)C1 (stereo unspecified)
